WNV protease inh – WNV NS2B-NS3 proteinase inhibition; P06935; WNV NS2B-NS3 protease, fluorogenic substrate Ex360/Em465; hits give low values; z-score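 (tested at a level between 10 and 100 µM)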; hit rate 0.18% among 65,000; AID 577;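 active means z-score at -3 or under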;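 further: score is relative to mean and spread of the compound wells of a plate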
Target sequence (P06935 1371-1501 limits assumed): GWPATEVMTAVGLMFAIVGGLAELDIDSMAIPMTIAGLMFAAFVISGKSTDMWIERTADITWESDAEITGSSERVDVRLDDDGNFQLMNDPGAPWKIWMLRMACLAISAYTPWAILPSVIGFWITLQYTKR
Target sequence (P06935 1502-1679 limits assumed): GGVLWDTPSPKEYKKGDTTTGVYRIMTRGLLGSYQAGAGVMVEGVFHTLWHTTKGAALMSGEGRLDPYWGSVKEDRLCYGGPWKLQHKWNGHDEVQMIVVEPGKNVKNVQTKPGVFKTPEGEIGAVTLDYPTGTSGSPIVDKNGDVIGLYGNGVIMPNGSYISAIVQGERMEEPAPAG
Hsc70 ATP site – Hsc70 inhibitors, probe displacement, primary screen, biochemical, fluorescence polarization (AID 568); 83,000 tested, under 10 active; Hsc70 fluorescence polarization, probe displacement; higher % means a stronger effect; strong numbers were not always called active; displacement, % at 20 µM, or IC50 in µM where a hit was titrated;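 active means displacement above 50% without optical interference and an IC50 on retest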;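 further: ATPase domain with a fluorescein-tagged ATP probe; 0% = vehicle and 100% = excess ADP; read after one hour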
MT1-MMP promoter – inhibitors of MT1-MMP promoter transcription, cell-based, luciferase reporter, luminescence (AID 618); MT1-MMP promoter luciferase reporter cells, luminescence; calls from a first round at 10 µM; hits with a dose series show EC50 in µM; hit rate 0.62% among 87,000;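 active means over half of the reporter light lost at 10 µM or EC50 under 50 µM; inactive means the rest and hits that failed the dose series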;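 further: actives suppress MT1-MMP promoter-driven transcription so potencies describe inhibitors; HT1080 fibrosarcoma cells; overnight exposure; toxic or luciferase-blocking compounds were not removed from the actives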
* marks the source's active call; other numbers are inactive results; i = inactive; . = not tested or not shown; + = active, no number.

SMILES	WNV protease inh	Hsc70 ATP site	MT1-MMP promoter
COC(=O)c1ccc2c(c1)S(=O)(=O)NC(=NCc1ccco1)S2	-0.45	1.0%	i
CNC(=O)NC1CCCc2ccccc21 (stereo unspecified)	0.45	8.5%	i
Cn1c(=O)[nH]c(=O)c2c1nc(NCCCn1ccnc1)n2Cc1ccc(F)cc1	1	-1.2%	i
C=CCN1C(=O)C(O)(CC(=O)c2c(C)n[nH]c2C)c2cc(Br)ccc21 (stereo unspecified)	0.5	3.8%	i
CC(C)CN1C(=O)NC(NC(=O)c2ccco2)(C(F)(F)F)C1=O (stereo unspecified)	-0.19	2.2%	i
CC(=O)Nc1cccc2c1C(=O)N(c1cccc(C)c1)C2=O	.	1.6%	i
CCC(=O)N1CCCc2cc(S(=O)(=O)N3CCN(c4ccccc4F)CC3)ccc21	0.58	3.2%	i
CC(C)CC(NC(=O)C1CCC(C)CC1)C(=O)N1CCN(c2ccccn2)CC1 (stereo unspecified)	-2.2	2.3%	i
Cc1cc(C(=O)NCc2cccs2)no1	.	-2.3%	i
CC(C)(/C=N/O)/[N+]([O-])=C/C=[N+](\[O-])C(C)(C)/C=N/O	-0.34	2.0%	i
CN(C(=O)C12CC3CC(CC(C3)C1)C2)C1(C)CCS(=O)(=O)C1 (stereo unspecified)	-0.46	1.5%	i
Cc1ccsc1/C=C/C1=Cc2c(sc(NC(=O)CSc3n[nH]c(N)n3)c2C#N)C(C)(C)C1	.	-8.3%	i
O=C(NCC1CCCO1)C1CCCCN1S(=O)(=O)c1ccc(F)cc1 (stereo unspecified)	-0.69	-4.7%	i
COC(=O)CSc1ccccc1C(=O)OC	0.27	1.7%	i
O=C(Nc1nc(-c2nc3ccccc3s2)cs1)c1ccc(S(=O)(=O)N2CCOCC2)cc1	0.88	-1.7%	i
COc1ccc(-c2cc(CCCC(=O)NCCc3ccc(OC)cc3OC)no2)cc1	-0.61	-0.4%	i
COc1cccc(C2/C(=C(/O)c3ccncc3)C(=O)C(=O)N2CCCN(C)C)c1 (stereo unspecified)	0.14	6.9%	i
Cc1ccc(-c2nnc(N(C)C(=O)c3ccccn3)s2)cn1	0.74	-0.6%	i
COc1cc(C(=O)Nc2ccc(S(=O)(=O)Nc3cc(C)on3)cc2)cc(OC)c1OC	-0.67	-2.6%	i
CC1(C)CCc2nc(SCc3ccccc3)c(C#N)cc2C1	.	0.7%	i
CN(Cc1ccccc1)S(=O)(=O)c1ccc2c(c1)OCCO2	-0.34	-3.5%	i
O=C(NCC1CCNCC1)c1ccncc1	-0.59	4.1%	i
C=CCn1c(=O)n(CCC#N)c(=O)n(CCC#N)c1=O	-0.71	-5.3%	i
Cn1c(=O)oc2cc(S(=O)(=O)N3CCCc4ccccc43)ccc21	-0.57	6.3%	i
CC1=CC(C)(C)N(C(=O)CSc2nncn2C)c2ccccc21	.	-1.6%	i
SMILES	WNV protease inh	Hsc70 ATP site	MT1-MMP promoter
Cc1[nH]nc2c1C1(CCOCC1)C(C#N)=C(N)O2	0.72	1.8%	i
C=C(C)Cn1c(CCCNC(=O)CCC)nc2ccccc21	-0.92	-6.9%	i
COC(=O)[C@H](CCSC)NC(=O)NC1CCN(Cc2ccccc2)CC1	0.16	5.3%	i
COc1ccc2c(c1)c(=O)oc1cc3oc(C)c(C)c3cc12	.	-0.2%	i
CSCCC1NC(=O)N(CC(=O)Nc2ccc(N3CCCCC3)cc2)C1=O (stereo unspecified)	-0.81	3.9%	i
CCc1ccccc1NC1=NCC(=O)N1C1CCCCC1	-0.83	3.2%	i
COC(=O)c1ccccc1NC(=O)CSc1nc2ccccc2c(=O)[nH]1	0.36	0.9%	i
COc1ccc(CCNC2CCN(C)CC2)cc1OC	0.86	-10%	i
CCOC(=O)c1cc(-c2nnc(SCC(=O)Nc3ccc(F)cc3)o2)c(C)nc1C	-0.38	1.5%	i
CSc1nnc2c(n1)c(C)nn2-c1ccc(C)cc1	.	1.7%	i
COC(=O)c1cc(NC(=O)CN2C(=O)CSC2=O)ccc1Cl	-0.42	0.6%	i
COc1ccccc1N1CCN(C(=O)CSc2ccc3c(C)cc(C)nc3n2)CC1	-0.17	-4.8%	i
COc1ccc(Cl)cc1NC(=O)c1c(-c2ccccc2)noc1C	-0.97	-3.1%	i
Cc1ccc(-c2noc(C3CCCN(C(=O)c4ccccc4)C3)n2)o1 (stereo unspecified)	-0.48	1.4%	i
CC1=C(C(=O)NC2CCCC(C)C2C)C2(CCCCC2)OC1=O (stereo unspecified)	0.44	4.7%	i
C=CCOC(=O)c1[nH]c2c(c1C)C(=O)CC(c1ccco1)C2 (stereo unspecified)	-2.2	1.3%	+
COc1ccc(-c2oc3ncn(CCN4CCOCC4)c(=N)c3c2-c2ccc(OC)cc2)cc1	-0.16	-4.1%	i
O=C(CN1C2CCCC1CC(NC(=O)c1ccco1)C2)Nc1ccccc1C(F)(F)F (stereo unspecified)	0.06	0.0%	i
Cc1nn(C)c(C)c1CN(C)C(=O)c1cc2nc(-c3ccco3)cc(C(F)(F)F)n2n1	-0.07	-5.1%	i
COc1ccc(-c2cc(N)n(S(=O)(=O)c3c(F)c(F)c(F)c(F)c3F)n2)cc1OC	-1.1	-4.4%	+
Cc1cc(Cl)c(S(=O)(=O)Nc2ccc3c(c2)OCCO3)cc1OCC(N)=O	-0.08	-0.7%	i
O=C(Nc1ccon1)c1cccc(C(F)(F)F)c1	1.7	1.0%	i
CCOc1ccc(S(=O)(=O)Nc2ccc(S(=O)(=O)N3CCOCC3)cc2)cc1	-0.37	0.1%	i
O=C(COc1ccccc1)Nc1ccccc1N1CCN(c2ccccc2)CC1	0.72	12%	i
CC(=O)NCCc1ccc(S(=O)(=O)Nc2cccnc2)cc1	0.5	2.2%	i

Of the compounds above, these have a cyano group:
SMILES	WNV protease inh	Hsc70 ATP site	MT1-MMP promoter
Cc1ccsc1/C=C/C1=Cc2c(sc(NC(=O)CSc3n[nH]c(N)n3)c2C#N)C(C)(C)C1	.	-8.3%	i
CC1(C)CCc2nc(SCc3ccccc3)c(C#N)cc2C1	.	0.7%	i
C=CCn1c(=O)n(CCC#N)c(=O)n(CCC#N)c1=O	-0.71	-5.3%	i
Cc1[nH]nc2c1C1(CCOCC1)C(C#N)=C(N)O2	0.72	1.8%	i

(list continues)
SMILES	WNV protease inh	Hsc70 ATP site	MT1-MMP promoter
CCOC(=O)C(C)n1cnc2c1c(=O)[nH]c(=O)n2C (stereo unspecified)	.	11%	i
COc1cc(C)c(Cl)cc1S(=O)(=O)NCCCN1CCOCC1	.	2.2%	i
CCOC(=O)c1ccc2c(c1)nc(COc1ccc3ccccc3c1)n2CC	.	-3.4%	i
CCCC(=O)Nc1ccc(S(=O)(=O)N2CCCC2)cc1	.	-0.1%	i
Cc1cc(C(=O)CSc2nn(-c3ccccc3)c(=S)s2)c(C)n1Cc1ccco1	-1.1	-5.6%	i
O=C(N1CCN(c2ccccc2)CC1)C(F)(F)C(F)(F)F	-0.09	8.8%	i
CCOn1c(=O)c(C)[n+]([O-])c2ccccc21	.	2.3%	i
CCOC(=O)C1=C(CSc2nc(CC)c(C)cc2C#N)OC(N)=C(C#N)C1c1ccccc1 (stereo unspecified)	.	2.2%	i
Cc1nc2nc(-c3ccccc3)[nH]n2c(=O)c1C	.	-0.9%	i
Cc1cc(C)c(NC(=O)CSc2nnc(-c3ccco3)n2N)c(C)c1	-0.18	-13%	i
O=C(c1ccco1)N1CCN(S(=O)(=O)c2ccc(S(=O)(=O)NC3CC3)cc2)CC1	-1.5	-2.3%	i
Cc1c(NC(=O)CSc2ccc3c(c2)OCCO3)c(=O)n(-c2ccccc2)n1C	0.37	6.6%	i
c1csc(C(c2nnnn2C2CCCCC2)N2CCCC3(CCCCC3)C2)c1 (stereo unspecified)	.	7.2%	i
CCn1c(/C(C#N)=C(\O)CCc2ccccc2)nc2ccccc21	-0.41	-32%	i
COc1ccc(C2=CC(c3c(C)nn(-c4ccccc4)c3Cl)n3nnnc3N2)cc1OC (stereo unspecified)	-1.5	5.5%	i
CCCCn1c(SCC2CCCCO2)nc2cc(S(N)(=O)=O)ccc21 (stereo unspecified)	-0.47	-4.5%	i
N#CC1=C(SCc2ccccc2Cl)NC(=O)C(C(N)=O)C1 (stereo unspecified)	-0.19	0.7%	i
CCn1c(N2CCN(CC(=O)c3c(C)n(C)c4ccccc34)CC2)nc2c1c(=O)[nH]c(=O)n2C	0.47	-2.2%	i
COc1ccc2[nH]c3nc(SCc4nnc(-c5ccccc5)o4)nnc3c2c1	0.96	4.2%	i
NC(=O)CSc1nnc(-c2ccc(S(=O)(=O)N3CCCC3)cc2)n1Cc1ccco1	0.14	5.9%	i
O=C(Cc1cccs1)NCc1ccncc1	1.5	-0.8%	i
CCOC(=O)C(C)c1ccc2cc(OC)ccc2c1 (stereo unspecified)	.	-4.2%	i
COc1cccc(OC)c1OCCCOc1c(OC)cccc1OC	-0.48	-1.5%	i
COc1cccc(-n2c(SCC(N)=O)nnc2-c2c[nH]c3ccccc23)c1	2.5	1.3%	i
CCOC(=O)N1CCN(C(=O)c2nn(-c3cc(OC)cc(OC)c3)c(=O)c3ccccc23)CC1	0.83	0.7%	i

One compound at a time, as listed above:
Results for CC(=O)NCCc1ccc(S(=O)(=O)Nc2cccnc2)cc1 = WNV protease inh = 0.5; Hsc70 ATP site = 2.2%; MT1-MMP promoter = i
Results for Cn1c(=O)oc2cc(S(=O)(=O)N3CCCc4ccccc43)ccc21 = WNV protease inh = -0.57; Hsc70 ATP site = 6.3%; MT1-MMP promoter = i

Arranged by number of heavy atoms (ascending): part of the list above.
SMILES	WNV protease inh	Hsc70 ATP site	MT1-MMP promoter
O=C(NCC1CCNCC1)c1ccncc1	-0.59	4.1%	i
CN(Cc1ccccc1)S(=O)(=O)c1ccc2c(c1)OCCO2	-0.34	-3.5%	i
COc1ccc2[nH]c3nc(SCc4nnc(-c5ccccc5)o4)nnc3c2c1	0.96	4.2%	i
CC(C)CC(NC(=O)C1CCC(C)CC1)C(=O)N1CCN(c2ccccn2)CC1 (stereo unspecified)	-2.2	2.3%	i

Later entries:
SMILES	WNV protease inh	Hsc70 ATP site	MT1-MMP promoter
Cc1cc(S(=O)(=O)N2CCN(Cc3ccc4c(c3)OCO4)CC2)cc(C)c1N1CCCC1=O	0.73	-0.1%	i
COC(=O)c1[nH]c2ccc(F)cc2c1NC(=O)CCN1CC(C)OC(C)C1 (stereo unspecified)	.	1.7%	i
COc1ccc(-c2nc(-c3ccc(Br)cc3)no2)c(OC)c1	-0.14	-1.9%	i
COc1ccccc1CNC(=O)c1oc2ccc(S(=O)(=O)N3CCCC3)cc2c1C	0.89	-8.4%	i
CCCC(=O)N1CCN(c2ccc(C(=O)c3ccc(OC)c(Br)c3)cc2F)CC1	-0.5	-3.6%	i
O=c1ccn(CCOc2ccc(Cl)cc2)c(=O)[nH]1	-0.7	5.1%	i
Cc1ccccc1NC(=O)NCCCN1CCN(C2CCCCC2)CC1	-0.63	6.6%	i
CCn1c(SCC(=O)Nc2sc(C)c(C)c2C#N)nnc1C(C)C	-0.38	-5.8%	i
CCOC(=O)CCc1nn(C)c(=O)c2ccccc12	-0.07	1.0%	i
CCCNS(=O)(=O)c1ccc(NC(=O)c2ccccn2)cc1	0.45	-2.4%	i
COC(=O)CNC(=O)c1c(C)cc(=O)oc1C	0.69	-0.1%	i
COc1ccccc1-c1nc(C#N)c(N2CCC(Cc3ccccc3)CC2)o1	0.86	1.0%	i
COc1ccccc1CNC(=O)C1CCC(CNc2c(N3CCOCC3)c(=O)c2=O)CC1 (stereo unspecified)	1.2	-7.5%	i
COC(=O)CC1SC(=O)NC1=Nc1ccc(OC)cc1 (stereo unspecified)	.	5.4%	i
CCOC(=O)/C(C(C)=O)=C1/OC(=O)c2ccccc21	.	-0.3%	i
CCCCCn1c(N2CCC(C(N)=O)CC2)nc2c1c(=O)[nH]c(=O)n2C	-0.4	3.3%	i
COc1ccccc1NS(=O)(=O)c1cc(C)ccc1C	.	7.2%	i
COc1cccc(NC(=O)C2CCCN(S(=O)(=O)c3cccc4nsnc34)C2)c1 (stereo unspecified)	-0.49	-3.6%	i
CCOc1ccccc1NC(=O)CCN1CCN(S(=O)(=O)c2ccc(Br)cc2)CC1	0.01	-4.9%	i
COc1cc(C2C(C(=O)c3cccs3)=C(O)C(=O)N2Cc2ccco2)cc(OC)c1OC (stereo unspecified)	-0.48	0.2%	i
Cc1cc(C)c(C#N)c(SCC(=O)OC2CCCCC2)n1	0.51	-2.8%	i
Cc1ccc(C(=O)c2ccccc2C(=O)O)c(O)c1	0.21	-5.4%	i
CN(C)CCCN1C(=O)C(=O)/C(=C(/O)c2ccc(OCc3ccccc3)cc2)C1c1cccnc1 (stereo unspecified)	1.5	-4.0%	i
CCOc1ccc(Nc2cc(C)nc(-n3nc(C)cc3C)n2)cc1	-1.6	4.8%	i
Cc1nc(NC(=O)CSc2ccccc2N)sc1C	0.54	2.9%	i
O=C(NCc1ccc2c(c1)OCO2)c1ccc(COc2cccc(Cl)c2)o1	-0.22	-8.1%	i
CCc1c(C)nc2ncnn2c1N1CCC(C(=O)Nc2ccccc2)CC1	-0.87	-4.9%	i
CCCC(=O)Nc1ccc(Br)c(Cl)c1	.	-2.3%	i
Cn1c(Cn2c(=O)sc3ccccc32)nnc1SCC(N)=O	-1	-2.2%	i
C=CCN=C(NC#N)SCc1ccccc1Cl	-0.29	-3.1%	i
